Screens as filed in PubChem BioAssay.
ClpP mod: qHTS Assay for Activators of ClpP; ATP-dependent Clp protease proteolytic subunit (Bacillus subtilis (strain 168)), P80244; purified B. subtilis ClpP, FRET peptide cleavage, 20 min; Potency, µM (top dose mostly 57.5 µM), inactives show top-dose activity change, negative = active; 340,000 compounds, 1.9% hits; AID 651965, 2013; active = well fitted falling curve with a large enough effect; inconclusive = small, poorly fitted or top-dose-only effect; inactive = no such curve, though single readings can be large or run the other way; further: potency means the concentration at half of the fitted maximal effect; the source files actives as falling curves though it sought activators and does not explain the sign; nearly all actives have a fitted effect of over 65% in size; many hits overshoot -100%
Target sequence (P80244 whole entry, looked up): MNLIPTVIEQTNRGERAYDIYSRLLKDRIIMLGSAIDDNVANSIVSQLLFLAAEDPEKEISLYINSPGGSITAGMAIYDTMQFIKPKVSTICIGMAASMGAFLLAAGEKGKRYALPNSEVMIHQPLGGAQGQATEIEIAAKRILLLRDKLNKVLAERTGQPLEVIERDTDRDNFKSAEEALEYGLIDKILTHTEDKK
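ClpP 10 microg/mL final, pH 8 Tris/KCl buffer with BSA, glycerol, Tween-20; compound pinned in; FRET-FV substrate; RT 20 min; Ex320/Em430; ΔFRET vs ADEP 5.8 microM, DMSO, no enzyme.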
gsp agonist: agonists of gsp mutant (McCune-Albright syndrome); gsp mutant cells, cAMP HTRF, 30 min; control for the full effect not named in the record; 340,000 compounds, 0.13% hits; Potency, µM (top dose mostly 76.9 µM), inactives show at the highest dose activation (cAMP increase), usual class: activators; AID 624287; active = well fitted activation curve with a large enough effect; inconclusive = small, poorly fitted or top-dose-only effect, or another doubt; inactive = no such curve, though single readings can be large or run the other way; cell line not stated here;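 further: phosphodiesterase inhibitor Ro 20-1724 added with compounds to block cAMP breakdown; potency means the concentration at half of the fitted maximal effect; nearly all actives have a fitted effect of over 60% in size; about a fifth of the inactives were tested at one dose only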
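Cells stably selected in G418 were plated at 2000/well, grown 16-24 hr, then given compounds in DMSO with the PDE inhibitor […] (300 uM solution added) for 30 min at 37C; cAMP was read by HTRF.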
gsp antagonist: gsp mutant antagonism. gsp-mutant cells, cAMP HTRF, 30 min; control for the full effect not named in the record. Potency, µM (titrated, usually from 76.9 µM), inactives show top-dose activity change, negative = inhibition, most hits filed as inhibitors. 340,000 compounds, 0.4% hits. AID 624288; active = falling curve of any shape with a large fitted effect; inconclusive = falling curve, mostly with a smaller effect; inactive = flat or rising curve; cell line not stated here;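 further: intracellular cAMP measured with PDE inhibitor Ro 20-1724 present during compound exposure; potency means the concentration at half of the fitted maximal effect; on the % scale 0 is the no-effect control and ±100 the full control effect; nearly all actives have a fitted effect of over 65% in size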
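Cells, 2000/well, grown 16–24 h in DMEM 10% FBS with 0.5 mg/ml G418, then compounds plus […] (300 uM addition stock), 30 min at 37C. cAMP read by HTRF (cAMP-d2 and anti-cAMP antibody-K in lysis buffer) after 30 min RT.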
Menin-MLL FL inh: menin-MLL binding inhibition, fluorescein peptide | FP activity change, % at 61.4 µM | AID 1766 | 290,000 tested, under 10 active | Fluorescence polarization, fluorescein-MLL peptide displacement from menin; inconclusive = falling polarisation curve, or a change in total fluorescence; inactive = total fluorescence flat and polarisation flat or rising; no compound was filed as active; the % refers to the polarisation; negative = inhibition;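 further: % of control where 0% means no effect; inhibitors lower the polarisation; unlabelled MLL peptide was the positive control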
Sfp PPTase inh: inhibitors of Bacillus subtilis Sfp phosphopantetheinyl transferase. Potency, µM, for inactives: max response, negative = inhibition, hits mostly inhibitors. 310,000 compounds, 3.5% hits. Biochemical Sfp PPTase activity, qHTS. AID 1490; active means well fitted inhibition curve with a large enough effect; inconclusive means small, poorly fitted or top-dose-only effect, or another doubt; inactive means no such curve, though single readings can be large or run the other way;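 further: the enzyme is Sfp with the accession as filed and its product quenches rhodamine fluorescence; potency means the concentration at half of the fitted maximal effect; 0% = enzyme reaction without inhibitor and -100% = no enzyme wells; top concentration of the series not given in the record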
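Compounds were incubated with enzyme (final 15 nM) for 15 min at room temperature before substrate addition started the reaction. Fluorescence at 525 nm excitation, 598 nm emission was recorded immediately and after 30 minutes.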
TRPV1 PAM: potentiators of human vanilloid receptor 1 (TRPV1); Q8NER1; TRPV1-expressing cells, Fluo-8 calcium influx, capsaicin EC20 potentiation; host cell line not named in the record; control for the full effect not named in the record; potentiation, % at 8.33 µM; 320,000 compounds, 0.02% hits; AID 540277; active means potentiation above 80%; inconclusive means 30% to 80%; inactive means below 30%; further: 0% is about no effect
Target sequence (Q8NER1 whole entry, looked up): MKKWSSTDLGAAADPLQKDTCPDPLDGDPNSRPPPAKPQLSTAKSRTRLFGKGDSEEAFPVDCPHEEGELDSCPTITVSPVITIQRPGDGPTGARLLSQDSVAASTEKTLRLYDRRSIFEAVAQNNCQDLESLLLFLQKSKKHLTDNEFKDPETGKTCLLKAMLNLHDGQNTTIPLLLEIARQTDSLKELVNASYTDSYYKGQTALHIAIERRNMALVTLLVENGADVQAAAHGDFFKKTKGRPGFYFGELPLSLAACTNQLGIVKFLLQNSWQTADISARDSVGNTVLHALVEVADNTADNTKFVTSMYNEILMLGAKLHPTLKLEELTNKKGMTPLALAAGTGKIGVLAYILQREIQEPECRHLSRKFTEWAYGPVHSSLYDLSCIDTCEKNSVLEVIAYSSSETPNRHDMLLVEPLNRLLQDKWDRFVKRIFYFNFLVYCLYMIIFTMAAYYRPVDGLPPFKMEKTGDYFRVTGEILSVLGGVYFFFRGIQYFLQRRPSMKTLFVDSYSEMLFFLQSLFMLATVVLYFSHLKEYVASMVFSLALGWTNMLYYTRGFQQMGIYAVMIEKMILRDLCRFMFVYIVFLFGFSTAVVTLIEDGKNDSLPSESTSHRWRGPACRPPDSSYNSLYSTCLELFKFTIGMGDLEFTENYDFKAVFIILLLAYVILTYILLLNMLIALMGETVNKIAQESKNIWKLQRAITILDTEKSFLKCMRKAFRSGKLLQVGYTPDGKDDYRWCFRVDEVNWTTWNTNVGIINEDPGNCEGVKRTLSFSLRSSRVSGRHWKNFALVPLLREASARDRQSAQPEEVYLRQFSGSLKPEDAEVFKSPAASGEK
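TRPV1-expressing cells were cultured overnight at 35.5C and loaded with Fluo-8 calcium dye for 40 to 90 min at room temperature. After a 10 s baseline, compound was added and calcium influx was read kinetically for 3 min (ex 480/em 520 nm).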
TRPML1 inh: inhibitors of human TRPML1 channel; TRPML1-inducible cells, Ca2+ dye fluorescence, FDSS; stronger effect = lower value; inhibition of EC80 agonist-evoked calcium signal; 390,000 compounds, 0.02% hits; Q9GZU1; activity change, negative = inhibition, % (concentration not given with the values); AID 624415; in the data active means activity change below about -50%; inconclusive means about -30% to -50%; inactive means above about -30%;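 further: stimulus is agonist 54-4 at its EC80 concentration; on the % scale 0 is the no-effect control and ±100 the full control effect; the text of the record puts the active cut at -80%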
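TRPML1-DL cells, Tet-induced overnight (~16 h, 37 °C) at 1,500 cells/well, were loaded with Ca8 no-wash dye plus quencher for 45-90 min at room temperature. Compounds were pinned during FDSS kinetic reading; agonist 54-4 at EC80 (4 uM final) then added.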
* marks the source's active call; other numbers are inactive results; i = inactive; ? = inconclusive; . = no result given; [ ] = dose if it differs, or a comment. The order is random; about 4.9% have a hit in one of these screens.

#	Compound	ClpP mod	gsp agonist	gsp antagonist	Menin-MLL FL inh
1	O=C(CCc1nc2ccccc2s1)OCc1ccccc1	1.2%	-11%	2%	-1.1
2	COc1ccc(NC(=O)CCS(=O)(=O)c2ccc3c(c2)CCN3C(C)=O)cc1	5.9%	?	15%	.
3	NC(=O)c1cc(Br)cc(C2CCCCC2)c1O	.	9%	0%	2.7
4	CCOC(=O)c1c(NC(=O)c2nn(CC)cc2Br)sc2c1CCCCC2	28µM*	-2%	3%	4.2
5	CCOc1ccc(CNC(=O)CCCc2cn(C)c3ccccc23)cc1	1.2%	-2%[15.4 µM]	-26%	8.4
6	CCOC(=O)N1CCN(C(=O)c2cc(COc3ccc(Cl)cc3OC)on2)CC1	-1.6%	-29%	-10%	.
7	CSc1ccc(/C=C/C(=O)OCC(=O)NCC2CCCO2)cc1 (centres undefined)	3.4%	-23%	-8%	.
8	CC(=O)NS(=O)(=O)c1ccc(NC(=O)c2cc(-c3cccs3)nc3ccccc23)cc1	?	-7%	5%	2.8
9	COc1ccc(C(=O)NCC(=O)OCc2c(Cl)cccc2Cl)cc1OC	.	-9%[15.4 µM]	2%	.
10	COc1ccc(/C(O)=C2/C(=O)C(=O)N(CCN(C)C)C2c2ccccn2)cc1OC (centres undefined)	-0.8%	-4%	-6%	0.5

#	Sfp PPTase inh	TRPV1 PAM	TRPML1 inh
1	-2%	-5	13
2	13%	-1	28
3	28%	10	30
4	20µM*	-16	0
5	7%	-3	-3
6	-3%	-13	8
7	.	2	15
8	9%	9	16
9	.	-8	1
10	?	4	-2

New compounds follow
#	Compound	ClpP mod	gsp agonist	gsp antagonist	Menin-MLL FL inh
11	CCN(CC)S(=O)(=O)c1ccc(N2CCOCC2)c(NC(=O)c2cc(=O)[nH]c3ccccc23)c1	.	34%[15.4 µM]	.	-6.5
12	O=C1OC(c2ccc(Cl)cc2)/C(=C(/O)c2ccccc2)C1=O (centres undefined)	-0.1%	?	-1%	-1.8
13	O=C(/C=C/c1ccccc1)NC(N1CCOCC1)C(Cl)(Cl)Cl (centres undefined)	.	-5%[15.4 µM]	-1%	1.1
14	Cc1oc(C(C)(C)C)cc1C(=O)Nc1ccc2c(c1)OCO2	-1.7%	-8%[15.4 µM]	-8%	-2.5
15	C(=N\Nc1nn2cnnc2c2ccccc12)/c1ccco1	.	1%[15.4 µM]	.	-8.2
16	Nc1nc(NCCOCCO)nc(NC2CCCCC2)c1[N+](=O)[O-]	-3.8%	3%	7%	-0.5
17	O=C(CSc1nnc2n(C3CCCC3)c(=O)c3ccccc3n12)N1CCCCCC1	-1.8%	-54%[inhibitor]	?	6.0
18	COc1ccc(S(=O)(=O)NC2CC(=O)N(c3ccccc3)C2)cc1C (centres undefined)	1.4%	6%	7%	.
19	Cc1ccc(C(=O)COC(=O)CCNS(=O)(=O)c2ccccc2F)cc1	-0.5%	-2%	-16%	.
20	Cc1ccc(CS(=O)(=O)c2cn(CC(=O)N3CCOCC3)c3ccccc23)cc1	0.4%	26%	0%	.

#	Sfp PPTase inh	TRPV1 PAM	TRPML1 inh
11	15%	8	2
12	-3%	-6	-25
13	4%	-10	-7
14	8%	.	9
15	50µM*	?	12
16	1%	1	-4
17	10%	-17	37
18	.	-16	1
19	.	.	-11
20	56µM*	-1	2

(list continues)
#	Compound	ClpP mod	gsp agonist	gsp antagonist	Menin-MLL FL inh
21	Cc1nc(C/C(=N\Nc2ccccc2)c2ccc(O)cc2O)cs1	-2.0%	-11%	-15%	-4.0
22	COc1ccc(/C(O)=C2/C(=O)C(=O)N(c3ncccn3)C2c2ccc(OC)c(OC)c2)cc1 (centres undefined)	-20%	14%	1%	3.8
23	COc1ccc(S(=O)(=O)N(C)C[C@H]2Oc3ccc(NC(=O)Nc4ccc(C(F)(F)F)cc4)cc3C(=O)N([C@H](C)CO)C[C@@H]2C)cc1	-3.7%	.	2%	.
24	CC12CS(=O)(=O)CC1SC(=S)N2Cc1ccccc1 (centres undefined)	.	-3%[15.4 µM]	8%	0.2
25	Cc1cc(Nc2ccccc2Cl)n2nnnc2n1	0.4%	6%	-2%	12
26	C/C(=N\NC(=O)c1ccc(NS(=O)(=O)c2cccs2)cc1)c1cccs1	0.0%	-4%[15.4 µM]	-6%	-1.1
27	O=C1CC(N2CCSCC2)C(=O)N1c1cccc(Cl)c1 (centres undefined)	-4.4%	-14%	10%	1.8
28	O=C(CCn1nnc2ccccc2c1=O)NCC1CCC(C(=O)O)CC1 (centres undefined)	-1.1%	-14%	12%	1.0
29	COc1cc(OC)nc(NC(=O)CSc2nc3ccccc3o2)n1	0.3%	?	3%	2.6
30	COc1cc(OC)cc(C(=O)N[C@H](C(=O)OCn2nnc3ccccc3c2=O)C(C)C)c1	1.1%	2%[15.4 µM]	-4%	-3.0

#	Sfp PPTase inh	TRPV1 PAM	TRPML1 inh
21	18µM*	-21	8
22	2%	3	-7
23	.	.	-13
24	17%	4	-3
25	6%	1	-3
26	15%	1	33
27	19%	7	-20
28	2%	-7	5
29	5%	-12	25
30	9%	-4	-1

From entry 20 up to 27, as listed above:
#	Compound	ClpP mod	gsp agonist	gsp antagonist	Menin-MLL FL inh
20	Cc1ccc(CS(=O)(=O)c2cn(CC(=O)N3CCOCC3)c3ccccc23)cc1	0.4%	26%	0%	.
21	Cc1nc(C/C(=N\Nc2ccccc2)c2ccc(O)cc2O)cs1	-2.0%	-11%	-15%	-4.0
22	COc1ccc(/C(O)=C2/C(=O)C(=O)N(c3ncccn3)C2c2ccc(OC)c(OC)c2)cc1 (centres undefined)	-20%	14%	1%	3.8
23	COc1ccc(S(=O)(=O)N(C)C[C@H]2Oc3ccc(NC(=O)Nc4ccc(C(F)(F)F)cc4)cc3C(=O)N([C@H](C)CO)C[C@@H]2C)cc1	-3.7%	.	2%	.
24	CC12CS(=O)(=O)CC1SC(=S)N2Cc1ccccc1 (centres undefined)	.	-3%[15.4 µM]	8%	0.2
25	Cc1cc(Nc2ccccc2Cl)n2nnnc2n1	0.4%	6%	-2%	12
26	C/C(=N\NC(=O)c1ccc(NS(=O)(=O)c2cccs2)cc1)c1cccs1	0.0%	-4%[15.4 µM]	-6%	-1.1
27	O=C1CC(N2CCSCC2)C(=O)N1c1cccc(Cl)c1 (centres undefined)	-4.4%	-14%	10%	1.8

#	Sfp PPTase inh	TRPV1 PAM	TRPML1 inh
20	56µM*	-1	2
21	18µM*	-21	8
22	2%	3	-7
23	.	.	-13
24	17%	4	-3
25	6%	1	-3
26	15%	1	33
27	19%	7	-20

(further entries)
#	Compound	ClpP mod	gsp agonist	gsp antagonist	Menin-MLL FL inh
31	CCOc1ccc(OCCNC(=O)c2cc(C3CC3)nc3c2cnn3C(C)C)cc1	-8.1%	-28%	-17%	.
32	Cc1cc(OCC(=O)N(C)C2CCCCC2)ccc1Cl	.	6%[15.4 µM]	-2%	0.5
33	CCOc1ccc(S(=O)(=O)Nc2nc3ccc(OC)cc3s2)cc1	-1.5%	-3%	-10%	-2.1
34	CSc1nc(NCc2ccco2)c2c3c(sc2n1)CN(C)CC3	.	.	.	-1.7
35	CC(=O)N1c2c(cc(Br)cc2S(=O)(=O)Nc2c(C)n(C)n(-c3ccccc3)c2=O)CC1C (centres undefined)	.	-1%[15.4 µM]	.	-7.7
36	Nc1nc(N)nc(COc2ccccc2)n1	.	?	8%	4.1
37	Cc1[nH]c2ccccc2c1C(=O)C(=O)N1CCN(c2ccccc2Cl)CC1	.	?	?	.
38	COC(=O)c1n[nH]c2ccccc12	-30%	11%	5%	1.3
39	CCN(CC(=O)Nc1sc2c(c1C#N)CCC(C)C2)CC(=O)NC1CCS(=O)(=O)C1 (centres undefined)	.	-36%	-12%	4.7
40	COc1cc(/C=C2\SC(=Nc3ccccc3)N(Cc3ccco3)C2=O)ccc1OC(C)C(=O)O (centres undefined)	-5.3%	1%	?	.

#	Sfp PPTase inh	TRPV1 PAM	TRPML1 inh
31	.	-27	21
32	10%	-14	16
33	16%	13	-2
34	14%	4	.
35	18%	0	-7
36	13%	9	-14
37	-1%	-2	15
38	14%	-22	-12
39	?	-29	6
40	?	-24	7

(continued)
#	Compound	ClpP mod	gsp agonist	gsp antagonist	Menin-MLL FL inh
41	CCCNC(=S)N1CCC(C(=O)c2ccc3c(c2)OCCO3)CC1	.	-34%	-11%	-1.7
42	CCN(CC)c1ccc(S(=O)(=O)N2CCOCC2)cc1NC(=O)c1cc(=O)c2ccccc2o1	-1.3%	-23%	-20%	5.2
43	Cc1ccccc1C(=O)N1CCC(C(N)=O)CC1	0.1%	-51%[inhibitor]	-2%	0.5
44	O=C(/C=C/c1ccc(Cl)cc1)Nn1c(-c2cccs2)nc2ccccc2c1=O	239%	15%	-28%	1.9
45	CCCCC[C@]12Cc3cc(OC)c(OC)cc3[C@H](O1)c1c(cc(C)oc1=O)O2	.	.	.	-1.3[11.7 µM]
46	COC(=O)COc1ccc(C(=O)Cn2c(NCCCO)nc3ccccc32)cc1	-0.3%	-2%[15.4 µM]	-14%	.
47	CS(=O)(=O)c1ccc(-c2nnn(CC(=O)N3CCCCC3)n2)cc1	.	-22%	7%	34[activator]
48	Cc1ccccc1CN1CCc2cc([N+](=O)[O-])ccc21	.	-16%	0%	-4.8

#	Sfp PPTase inh	TRPV1 PAM	TRPML1 inh
41	25%	-16	10
42	17%	1	3
43	0%	-2	29
44	3%	-2	-13
45	16%	i	.
46	.	.	-2
47	14%	-1	4
48	-7%	2	17
